RecA splice inh = blocks M. tuberculosis RecA intein splicing; P9WHJ3; cell-free RecA intein splicing, fluorescence; inhibition, %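 (about 9 µM by stock and volumes)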; 290,000 tested, 0.75% active; AID 2221; in the data active = inhibition above about 30%; inconclusive = no clear call, values can overlap the other calls;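 note: 0% = vehicle wells and 100% = reference inhibitor control wells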
Target sequence (P9WHJ3 whole entry, looked up, canonical isoform): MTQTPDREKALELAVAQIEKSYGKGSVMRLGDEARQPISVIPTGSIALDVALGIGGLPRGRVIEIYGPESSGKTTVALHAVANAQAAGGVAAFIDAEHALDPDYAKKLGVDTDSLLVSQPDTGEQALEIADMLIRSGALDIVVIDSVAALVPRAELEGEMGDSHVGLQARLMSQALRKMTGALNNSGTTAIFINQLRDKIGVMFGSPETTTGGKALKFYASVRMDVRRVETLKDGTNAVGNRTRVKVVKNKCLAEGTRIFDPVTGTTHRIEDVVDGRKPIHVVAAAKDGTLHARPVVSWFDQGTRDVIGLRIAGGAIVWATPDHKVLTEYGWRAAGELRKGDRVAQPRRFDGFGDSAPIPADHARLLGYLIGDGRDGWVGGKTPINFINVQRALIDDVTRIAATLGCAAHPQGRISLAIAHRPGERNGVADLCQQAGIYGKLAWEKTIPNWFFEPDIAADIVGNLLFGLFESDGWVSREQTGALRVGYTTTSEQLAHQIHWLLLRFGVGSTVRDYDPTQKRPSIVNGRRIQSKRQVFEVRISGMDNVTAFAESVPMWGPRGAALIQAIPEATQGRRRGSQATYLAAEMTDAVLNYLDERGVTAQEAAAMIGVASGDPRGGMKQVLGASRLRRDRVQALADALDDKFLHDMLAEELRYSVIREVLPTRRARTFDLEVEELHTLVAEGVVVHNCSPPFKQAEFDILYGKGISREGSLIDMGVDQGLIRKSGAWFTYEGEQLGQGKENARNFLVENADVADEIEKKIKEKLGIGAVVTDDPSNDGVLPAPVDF
Mtb bLac sens = beta-lactam sensitization of Mtb H37Rv; M. tuberculosis H37Rv growth with meropenem, percent inhibition; hits of this screen are not shown here; 330,000 tested, 0.27% active; inhibition, % at 25 µM; AID 434955;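 active = about 74% or more and at least 40 points above the plate without the antibiotic, then above 30% in a dose series; inconclusive = first-round hits that could not be retested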;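 note: growth measured after seven days incubation then overnight dye step; 0% = bacteria only wells and 100% = bacteria with antibiotic; twin plates without the antibiotic show which effects depend on it; some results filed as inactive read as strong as hits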
Arbovirus anti = blocks arbovirus infection; inhibition, % at 10 µM; arbovirus infection cell-based antiviral screen; 200,000 tested, 0.37% active; AID 1251;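 active = inhibition from about 30%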;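 note: bluetongue infection of BSR cells; cell survival read as ATP light after 72 h; 0% = infected wells without compound and 100% = uninfected wells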
YopH inh = blocks Yersinia enterocolitica YopH tyrosine phosphatase; fluorescence Ex485/Em525; inhibition, %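 (about 10 µM by stock and volumes)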; 140,000 tested, 0.16% active;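 active = inhibition of 50% or more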;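 note: controls were vehicle for no effect and minimum signal wells for full effect; inactives centre near -20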
Mtb H37Rv = M. tuberculosis H37Rv growth inhibitors, H37Rv strain (AID 1626) | M. tuberculosis H37Rv growth inhibition; higher % means a stronger effect | inhibition, % at 10 µM; hits with a dose series show IC50 in µM | 220,000 tested, 0.95% active;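 active = confirmed in a dose series; inconclusive = inhibition above 80% but not taken into the dose series; inactive = below 80% or under 30% at every dose of the series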;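 note: bacteria incubated seven days before Alamar blue readout; 0% = bacteria only wells and 100% = bacteria with antibiotic wells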
Arbovirus anti repeat = second read-out of Arbovirus anti, no call of its own (marks repeat the call); inhibition, %; measured here: 10K subset replicate screen; many hits read low in the repeat;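 first of two repeat runs on a subset; 0% = infected and 100% = uninfected wells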
An asterisk follows results filed as active; ? = inconclusive; / = no result given. Some of the compounds tested; rates above refer to the full screens.

SMILES | RecA splice inh | Mtb bLac sens | Arbovirus anti | YopH inh | Mtb H37Rv | others
COc1cc(C)c(Cl)cc1S(=O)(=O)n1cnc(C)c1 | -0.6 | -4 | 10 | 0 | -3%
Cc1ccc(NC(=O)CSc2nc(=O)cc(N)n2CCc2ccccc2)cc1 | 1.9 | 2 | -5 | / | 4%
COc1ccc(NC(=O)Nc2ccc(Cc3ccncc3)cc2)c(OC)c1 | 1.6 | 19 | -30 | -21 | 1%
Cc1sc(NC(=O)C2=COCCO2)c(C#N)c1C | -3.3 | -4 | / | / | /
COc1cc(/C=C(\NC(C)=O)C(=O)N2CCCCC2)ccc1OC(C)=O | -2.7 | -5 | / | / | /
CC(NC(=O)COc1ccc(/C=N/NC(=O)C(=O)Nc2ccccc2Br)cc1)c1ccccc1 (stereo not drawn) | -2.8 | 75 | -5 | -45 | ?
COc1ccccc1CN1CCNC(=O)C1CC(=O)NCc1csc(C)n1 (stereo not drawn) | 3.0 | -4 | 4 | / | 3%
CCOc1ccc(Br)cc1S(=O)(=O)NCCN(C)C | -0.5 | -2 | 12 | -12 | 1%
Oc1ccc(N2CCN(Cc3cc4c(cc3Br)OCCO4)CC2)cc1 | -5.5 | 1 | / | / | /
Cc1ccc(C(=O)NCC(=O)OCCOc2ccccc2Cl)cc1 | -4.0 | -6 | / | / | /
CCOC(=O)CNC(=O)CSc1nnnn1-c1ccc(C)c(C)c1 | -0.4 | -12 | 10 | -30 | -17%
CCOC(=O)Nc1c(Cl)n(C)c(=O)n(C)c1=O | 0.3 | 2 | / | / | /
CCOc1cc(NC(=S)NCCOC)c(OCC)cc1NC(=O)c1ccco1 | 0.8 | -4 | -1 | / | -3%
CCc1ccccc1NC(=O)Cn1nc(C(F)(F)F)c2c1CCC2 | / | -11 | -7 | -24 | 5%
C#CC(=O)N(c1cc(OC)ccc1OC)C(C(=O)NC1CCCC1)c1cccs1 (stereo not drawn) | 31* | 13 | -41 | -59 | -2%
C#CCn1c(O)c(N=NC(=O)CNC(=O)/C=C/c2ccccc2)c2ccccc21 | -2.9 | 2 | / | / | /
CCc1ccc(NC(=O)CSc2nnc(-c3n[nH]c4ccccc34)n2-c2ccccc2)cc1 | -6.4 | 3 | -5 | -6 | 3%
CN(C)C(=S)c1ccc2ccccc2n1 | 0.6 | -20 | 7 | -21 | -1%
CCOC(=O)CNC(=O)Nc1cc(C(C)(C)C)nn1-c1ccccc1 | 0.0 | -4 | -3 | -1 | -6%
O=c1c2cccnc2n(-c2ccccc2)n1Cc1ccc(Cl)cc1 | 7.1 | -3 | 10 | / | -1%

12 neighbouring records already listed, quoted:
SMILES | RecA splice inh | Mtb bLac sens | Arbovirus anti | YopH inh | Mtb H37Rv | others
Oc1ccc(N2CCN(Cc3cc4c(cc3Br)OCCO4)CC2)cc1 | -5.5 | 1 | / | / | /
Cc1ccc(C(=O)NCC(=O)OCCOc2ccccc2Cl)cc1 | -4.0 | -6 | / | / | /
CCOC(=O)CNC(=O)CSc1nnnn1-c1ccc(C)c(C)c1 | -0.4 | -12 | 10 | -30 | -17%
CCOC(=O)Nc1c(Cl)n(C)c(=O)n(C)c1=O | 0.3 | 2 | / | / | /
CCOc1cc(NC(=S)NCCOC)c(OCC)cc1NC(=O)c1ccco1 | 0.8 | -4 | -1 | / | -3%
CCc1ccccc1NC(=O)Cn1nc(C(F)(F)F)c2c1CCC2 | / | -11 | -7 | -24 | 5%
C#CC(=O)N(c1cc(OC)ccc1OC)C(C(=O)NC1CCCC1)c1cccs1 (stereo not drawn) | 31* | 13 | -41 | -59 | -2%
C#CCn1c(O)c(N=NC(=O)CNC(=O)/C=C/c2ccccc2)c2ccccc21 | -2.9 | 2 | / | / | /
CCc1ccc(NC(=O)CSc2nnc(-c3n[nH]c4ccccc34)n2-c2ccccc2)cc1 | -6.4 | 3 | -5 | -6 | 3%
CN(C)C(=S)c1ccc2ccccc2n1 | 0.6 | -20 | 7 | -21 | -1%
CCOC(=O)CNC(=O)Nc1cc(C(C)(C)C)nn1-c1ccccc1 | 0.0 | -4 | -3 | -1 | -6%
O=c1c2cccnc2n(-c2ccccc2)n1Cc1ccc(Cl)cc1 | 7.1 | -3 | 10 | / | -1%

Next part:
SMILES | RecA splice inh | Mtb bLac sens | Arbovirus anti | YopH inh | Mtb H37Rv | others
COc1cccc(/C=N/NC(=O)C(C)Sc2ccccc2)c1 (stereo not drawn) | -8.9 | -7 | -2 | / | -2%
O=C(COC(=O)c1cc2c(s1)CCCC2)NCc1ccccc1Cl | 0.2 | 6 | -2 | -45 | -1%
Cc1cc(C)c(-c2nc3ccccc3s2)[nH]1 | 3.1 | 10 | / | / | /
Cc1ccc(Cl)cc1-n1c(SCC(=O)NCCC2=CCCCC2)nc2n[nH]c(C)c2c1=N | 0.7 | 10 | / | / | /
Cc1ccc2cc(CN(Cc3ccc4c(c3)OCO4)Cc3nnnn3Cc3ccco3)c(=O)[nH]c2c1 | 11 | 81 | -28 | -34 | 8%
Cn1nnnc1SCC(=O)Nc1ccc(Br)cc1Cl | -3.4 | 60 | -6 | 15 | 0%
CCc1ccc(NC(=O)NCc2cccnc2)cc1 | 0.5 | -9 | / | / | /
O=C(Nc1ccnn1C1CCN(Cc2ccccc2)CC1)c1ccccc1Cl | -1.3 | 2 | / | / | /
O=c1c2ccccc2oc2cc(C#CC3(O)CCCCC3)ccc12 | 8.8 | 81 | / | / | 22%
O=C(CSc1ccc(-c2ccco2)nn1)Nc1ccc(F)cc1F | 3.1 | -11 | / | / | /
COc1ccc(CCNC(=O)CSc2ncn[nH]2)cc1 | -3.3 | -7 | 2 | 0 | 3%
Cc1cccc(C)c1NC(=O)C1=C(O)c2ccccc2N(C)S1(=O)=O | 1.4 | ? | 8 | -34 | -5%
O=C(CC1C(=O)N(c2ccccc2)C(=S)N1c1ccccc1)c1ccc(Br)cc1 (stereo not drawn) | 5.9 | 1 | -3 | -20 | 5%
COCc1cc(C)nc(SCC(=O)N2CCC(C)CC2)c1C#N | -5.7 | -2 | 3 | -28 | 10%
CCCCCCN(C(=O)CCl)c1ccccc1 | 54* | 99 | / | / | 63%
COc1ccc(-c2csc(NC(=O)CS(=O)(=O)c3ccc(F)cc3)n2)cc1OC | 1.6 | 2 | / | / | /
COc1ccccc1NC(=O)CSc1nnc(-c2ccccn2)n1Cc1ccco1 | 0.8 | -15 | -2 | -29 | -3% | Arbovirus anti repeat=-5
O=C(CSc1nnc(-c2cccnc2)o1)Oc1ccccc1 | 11 | -7 | 9 | 2 | -2%
COc1ccc(Cl)cc1NC(=O)C/C(C)=N/NC(=O)CC#N | 2.6 | / | -2 | -21 | 1%
O=C(C(=O)N1CCN(c2ccccc2F)CC1)c1cn(CC(=O)N2CCOCC2)c2ccccc12 | -4.4 | 4 | / | / | /
Cc1ccc(S(=O)(=O)N(CC(=O)N2CCCCC2)c2cccc(C)c2)cc1 | 0.5 | 5 | 0 | -15 | -5%
O=C(NCCS(=O)(=O)N1CCC2(CC1)OCCO2)c1ccccc1 | 1.4 | -5 | / | / | /
O=c1oc2cc(O)c(Cl)cc2c2ccccc12 | -4.4 | 65 | 7 | -18 | 51%
COc1cc(C)c(CNc2ccc(OC)c(OC)c2)cc1C | 13 | 9 | 0 | -11 | 0%
CCn1cc(C(=O)NCc2ccc3c(c2)OCO3)c2cc(OC)c(OC)cc2c1=O | -0.9 | -3 | 1 | 8 | -6%
N/C(=N\NC(=O)c1ccc(Cl)cc1)c1cnccn1 | 0.5 | 86 | / | / | ?
Cn1cc(S(=O)(=O)N2CCC(Cc3ccccc3)CC2)c(=O)n(C)c1=O | -1.3 | 0 | 7 | 5 | 9%
CCOCCCNC(=O)c1cn(C)c(=O)c2cc(OC)c(OC)cc12 | 9.7 | -5 | 2 | 0 | -10%
COC(=O)N/C(C)=C1/NC(=O)c2ccccc2C(c2ccccc2)N1 (stereo not drawn) | -0.6 | -14 | 1 | 12 | -5%
O=C(Nc1ccc(Oc2ccccc2)cc1)N[C@@H](Cc1ccccc1)C(=O)O | 3.2 | -2 | / | / | /
Cc1ccccc1C(=O)N1CCN(c2nc(N3CCOCC3)nc(N3CCOCC3)n2)CC1 | 0.3 | -4 | 0 | -20 | 0%
NC(=O)[C@@H]1CCCN1Cc1nc(Cc2cccc(C(F)(F)F)c2)no1 | -0.7 | 0 | 4 | / | -4%
O=C(Nc1nnc(-c2ccccc2)o1)Nc1ccc(F)cc1F | -1.6 | 95 | 4 | / | 8%
Cc1ccc2cc(CCNC(=O)c3ccco3)c(=O)[nH]c2c1C | -0.2 | -9 | -3 | -28 | /
O=C(Cn1cc([N+](=O)[O-])cn1)Nc1nc2ccccc2s1 | 1.5 | 4 | -4 | -37 | -7%
Cn1nc(-c2ccccc2)c(C(O)c2ccc(Cl)cc2)c1Cl (stereo not drawn) | 5.1 | 10 | 11 | -11 | -8%
COc1cccc(NC(=O)CN(C2=NC3CS(=O)(=O)CC3S2)c2cccc(C)c2)c1 (stereo not drawn) | 12 | -2 | / | / | /
O=[N+]([O-])c1ccc(/C=C/C2=NN(c3ccccc3)C(c3ccco3)C2)o1 (stereo not drawn) | -0.3 | / | -3 | / | 21%
CCC(C)(C(=O)NC1CCCCC1)N(Cc1ccco1)C(=O)c1ccccn1 (stereo not drawn) | / | -3 | 6 | 0 | -6%
c1cncc(-c2nc(NCc3ccco3)c3ccccc3n2)c1 | 3.1 | 2 | 1 | -28 | -5%
N#Cc1nc(Cc2ccccc2)oc1N1CCN(c2cccc(Cl)c2)CC1 | -1.9 | -9 | -2 | -34 | 5%
CC(CCO)Nc1nc2c([nH]1)c(=O)n(C)c(=O)n2C (stereo not drawn) | -3.2 | -4 | 0 | -11 | -4%
O=C(Nc1nccs1)c1nc(-c2ccccc2)n(-c2ccccc2)n1 | 1.5 | -1 | 3 | -29 | 0%
O=C1CN(C(=O)/C=C/c2ccc(Br)cc2)CCN1 | -0.1 | -5 | / | / | /
NCCCn1cnc2ccccc21 | 6.6 | 3 | 5 | / | 2%
COc1ccc(N(CC(=O)N2CCN(c3ccccc3F)CC2)S(=O)(=O)c2ccc(C)cc2)cc1 | 7.0 | -15 | / | / | /
O=C(O)c1ccc(NC2=C(n3nnc4ccccc43)C(=O)c3ccccc3C2=O)cc1 | 88* | 1 | / | / | -3%
O=C(Nc1ccc2ccccc2c1)c1nn(C23CC4CC(CC(C4)C2)C3)cc1Br | 1.7 | -1 | -2 | -21 | 31%
N#Cc1ccc(C(CC(=O)O)N2Cc3ccccc3C2=O)cc1 (stereo not drawn) | 0.5 | -1 | / | / | /
CN1CCN(c2nc(-c3ccc(Cl)cc3)cc(=O)[nH]2)CC1 | -2.6 | -9 | / | / | /

Next results:
SMILES | RecA splice inh | Mtb bLac sens | Arbovirus anti | YopH inh | Mtb H37Rv | others
Cc1no[n+]([O-])c1COc1ccc(/C=C2\NC(=S)NC2=O)cc1 | 4.4 | 3 | 11 | -5 | -6%
COc1cc(C(=O)NCCC(=O)NCc2c(F)cc(F)cc2F)cc(OC)c1OC | -1.4 | 0 | / | / | /
CN(C)c1nc(SCCOC(=O)COc2ccc(Cl)cc2Cl)nc(N(C)C)n1 | / | 63 | 2 | -33 | /
COc1ccc(Nc2nc(-c3ccccc3O)nc3ccccc23)cc1 | 1.9 | 3 | / | / | /
COc1ccc2c3c(c(=O)oc2c1OCC(N)=O)CCCC3 | 1.2 | 9 | -1 | -16 | -3%
CC1CCCC(C)N1C(=O)COC(=O)c1cc(S(=O)(=O)N2CCOCC2)ccc1Cl (stereo not drawn) | -6.6 | -5 | / | / | /
COc1ccc(NC(=O)CNC(=O)c2nn(-c3ccc(OC)c(Cl)c3)c(=O)c3ccccc23)c(OC)c1 | 14 | 26 | / | / | /
COc1ccc(CCN=C(N)NS(=O)(=O)c2cccs2)cc1OC | 3.2 | 5 | -2 | / | 8%
O=C(Nc1cccnc1)c1ccc(Cl)c(S(=O)(=O)N2CCCCC2)c1 | 3.1 | 8 | / | / | /
O=C(c1cccs1)N1CCC(c2nc3c(nnn3Cc3cccc(Cl)c3)c(=O)[nH]2)CC1 | -2.6 | 8 | / | / | /
CCc1nc(SCC(=O)N2CCCC2)c2c(=O)n(C)c(=O)n(C)c2n1 | 0.0 | 3 | / | / | /
CC1(C)SC(=S)N(/N=C/c2ccc(O)cc2)C1N(O)C(=O)Nc1ccc([N+](=O)[O-])cc1 (stereo not drawn) | -6.3 | 6 | -4 | -32 | -2%
CCn1cc(C(=O)NCc2ccco2)c(=O)c2cc(S(=O)(=O)N3CCCC3)ccc21 | -0.2 | -6 | 12 | / | 3%
CCN(Cc1ccccc1)CC(O)COc1ccccc1 (stereo not drawn) | -1.4 | 1 | 13 | 3 | -7%

Compound activity: PubChem BioAssay, several laboratories
